Methyltransferases: Primary Screen for Target Class Profiling of Small Molecule Inhibitors of Methyltransferases. purified enzyme, MTase-Glo SAH luminescence; active compounds read low. calls only at 40 µM. hit rate 3.9% among 25,000; active = -50% or lower on at least one of six enzymes; inconclusive = the cases between; inactive = as a rule above -30% on all six;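 note: enzymes were COMT GAMT GNMT HNMT NNMT and PNMT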
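Each enzyme was assayed with SAM and its substrate. SAH formation detected by MTase-Glo luminescence; single-point 40 uM screen[…].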
Calls only; i = inactive; ? = inconclusive; + = active, no number. % is set by controls: 0 for no effect and ±100 for the full control effect. Only part of the results is shown. The share of hits here may be higher or lower than overall.

Start of the data: the first two entries as a preview:
SMILES | Methyltransferases
CC1(C(=O)NC2CCCCCC2)Cn2c(cc3sccc32)C(=O)N1Cc1ccccc1Cl (stereo unspecified) | i
Cc1cc(C(=O)NC2CC(c3cc(=O)[nH]cn3)C2)cc(S(N)(=O)=O)c1C (stereo unspecified) | i

The list itself, repeating the preview:
SMILES | Methyltransferases
CC1(C(=O)NC2CCCCCC2)Cn2c(cc3sccc32)C(=O)N1Cc1ccccc1Cl (stereo unspecified) | i
Cc1cc(C(=O)NC2CC(c3cc(=O)[nH]cn3)C2)cc(S(N)(=O)=O)c1C (stereo unspecified) | i
COc1ccc(-c2ccc3nnc(CNC(=O)CCc4ccccc4)n3n2)cc1 | i
Cc1ccc(Cn2c(=O)c3ccc(C(=O)NC(C)C)cc3n3c(=O)n(Cc4ccccc4Cl)nc23)cc1 | i
CN(CCCN1C(=O)c2ccc(-c3ccco3)n2CC1(C)C(=O)NC1CCCC1)Cc1ccccc1 (stereo unspecified) | i
Cc1ccc(C)c(C(=O)Cn2nc3n(C)c(=O)c4ccc(C(=O)NC5CCCCC5)cc4n3c2=O)c1 | i
COC[C@@H]1CN(Cc2cnn(C(C)C)c2)C[C@H]1C(=O)NC1CC1 | i
COc1cccc(NC(=O)CSc2nnc3[nH]c(=O)c(C(C)(C)C)nn23)c1 | i
C=C1CC[C@@H]2[C@](C)(CO)[C@H](O)CC[C@@]2(C)[C@@H]1CC(O)C1=CCOC1=O (stereo partly specified) | i
CC1(C(=O)NCc2ccccc2)Cn2c(cc3ccccc32)C(=O)N1Cc1cccc(Cl)c1 (stereo unspecified) | i
CC(C)=CCC/C(C)=C/CC/C(C)=C/COC1OC(COC2OCC(OC3OCC(O)C(O)C3O)C(O)C2O)C(O)C(OC2OC(C)C(OC3OC(C)C(OC4OCC(OC5OC(C)C(O)C(O)C5O)C(O)C4O)C(O)C3O)C(O)C2O)C1O (stereo unspecified) | i
CCOC(=O)c1cc2n(n1)CC(C)(C(=O)NCc1ccc(Cl)cc1)N(c1ccc(F)cc1)C2=O (stereo unspecified) | i
CCCN1C[C@@H](CO)[C@H](c2nc(CCOC)no2)C1 | i
Cn1c(=O)n(C)c2cc(S(=O)(=O)N3CCN(Cc4ccc5c(c4)OCO5)CC3)ccc21 | i
COCC(=O)N1CCN2C(=O)N(C)C[C@H]2C1 | i
CC(C)CNC(=O)c1ccc2c(=O)n(CC(C)C)c3nnc(SCC(=O)NC(C)(C)C)n3c2c1 | i
COC(=O)C1(C)c2[nH]c3ccccc3c2CCN1C(=O)CCl (stereo unspecified) | i
CC(C)CCN1CCNC(=O)C1CC(=O)NCc1ccc(O)cc1O (stereo unspecified) | i
CCCN1C(=O)c2nc3ccccc3n2CC1(C)C(=O)NC1CCCCC1 (stereo unspecified) | i
Cc1ccc(CN2CC(=O)N(Cc3ccccc3)c3ccccc3S2(=O)=O)cc1 | i

An excerpt from above in order of formula weight, high to low:
SMILES | Methyltransferases
Cc1ccc(Cn2c(=O)c3ccc(C(=O)NC(C)C)cc3n3c(=O)n(Cc4ccccc4Cl)nc23)cc1 | i
Cc1ccc(C)c(C(=O)Cn2nc3n(C)c(=O)c4ccc(C(=O)NC5CCCCC5)cc4n3c2=O)c1 | i
Cc1ccc(CN2CC(=O)N(Cc3ccccc3)c3ccccc3S2(=O)=O)cc1 | i
Cc1cc(C(=O)NC2CC(c3cc(=O)[nH]cn3)C2)cc(S(N)(=O)=O)c1C (stereo unspecified) | i

Further entries.
SMILES | Methyltransferases
CCN(CC)Cc1ccc(C(=O)N(CCc2ccccc2OC)[C@@H]2CCNC2)cc1 | i
CCOc1ccc(CN2C(=O)c3cc(-c4ccco4)nn3CC2(C)C(=O)NC2CCCCCC2)cc1 (stereo unspecified) | i
CC1(C(=O)NC2CCCCC2)Cc2ccccc2C(=O)N1C1CCCCCC1 (stereo unspecified) | i
Cc1cc2c(cc3n2CC(C)(C(=O)NC2CCCCCC2)N(CCCN2CCOCC2)C3=O)o1 (stereo unspecified) | i
Cc1cccc(CN2CCCn3nc(C(=O)NCCc4cccs4)cc3C2=O)c1 | i
COc1cccc(N2CCN(C(=O)C3CCCN(c4cnc5nccnc5c4)C3)CC2)c1 (stereo unspecified) | i
Cc1ccccc1C(=O)N1CCC(C(=O)N2CCC(c3nc4ncccc4[nH]3)CC2)C1 (stereo unspecified) | i
COc1cccc(COC2CN(CC(C)C)C(=O)CN(C(=O)c3csc(C(C)=O)c3)C2)c1 (stereo unspecified) | i
CCOC(=O)c1cc2n(n1)CC(C)(C(=O)NC1CCCCC1)N(c1cccc(Cl)c1C)C2=O (stereo unspecified) | i
COc1cccc(CSc2nnc3n(C)c(=O)c4ccc(C(=O)NC5CCCCC5)cc4n23)c1 | i
O=C(NC1CCCCC1)c1nn(CCOc2ccccc2)c2c1CNCC2 | i
CCOC(=O)CNC(=O)C1(C)Cn2c(ccc2-c2ccco2)C(=O)N1Cc1cc(OC)ccc1OC (stereo unspecified) | i
CCCCN1C(=O)c2cc(C(=O)Nc3ccc(CC)cc3)nn2CC1(C)C(=O)NC1CCCC1 (stereo unspecified) | i
O=C(NCCc1ccc(Cl)cc1)C1CN(C2CCCC2)C(=O)N1 (stereo unspecified) | i
COC(=O)c1ncn2c1C(=O)N(Cc1cccc(OC)c1)C(C)(C(=O)NC1CCCCCC1)C2 (stereo unspecified) | i
CC(=O)O[C@@H]1C[C@@]23C[C@@]24CC[C@H](O[C@@H]2OC[C@H](O)[C@H](O)[C@H]2O)C(C)(C)[C@@H]4CC[C@H]3[C@]2(C)[C@@H](O)C34O[C@H](C[C@@H](C)[C@@H]3[C@@]12C)[C@@H](C(C)(C)O)O4 | i
C=C(C(=O)O)C1CC2=C(C)CCCC2(C)C[C@@H]1O (stereo partly specified) | i
Cc1cccc(OCCc2noc(C3CCCN3)n2)c1 (stereo unspecified) | i
O=c1[nH]cc(F)c(=O)[nH]1 | i
Cc1ccc(C2(C(=O)N3C[C@@H](CN4CCCCC4)[C@@H](CO)C3)CC2)cc1 | i

Quoted at random: three compounds from above.
SMILES | Methyltransferases
CCOC(=O)CNC(=O)C1(C)Cn2c(ccc2-c2ccco2)C(=O)N1Cc1cc(OC)ccc1OC (stereo unspecified) | i
C=C(C(=O)O)C1CC2=C(C)CCCC2(C)C[C@@H]1O (stereo partly specified) | i
Cc1cccc(OCCc2noc(C3CCCN3)n2)c1 (stereo unspecified) | i

Following part.
SMILES | Methyltransferases
Cc1cccc(NC(=O)CSc2nnc3n(C)c(=O)c4ccc(C(=O)NC5CCCCC5)cc4n23)c1 | i
CCOc1ccc(CNC(=O)CCCn2ccc3cc(S(=O)(=O)N4CCCC4)ccc32)cc1 | i
Cc1nnc2ccc(NC3CCCC3)nn12 | i
O=C(CC1CCCC1)N1CC2CC(C1)[C@H]1CCCC(=O)N1C2 (stereo partly specified) | i
COc1ccc2cc3n(c2c1)CC(C)(C(=O)NCC1CCCO1)N(CCc1ccc(Cl)cc1)C3=O (stereo unspecified) | i
CCCn1c(=O)c2cc(F)ccc2n2c(SCC(=O)NCc3ccc(Cl)cc3)nnc12 | i
CCCCN1C(=O)c2cc(C(=O)Nc3cc(Cl)ccc3OC)nn2CC1(C)C(=O)NC1CCCC1 (stereo unspecified) | i
CCCn1c(=O)c2ccc(C(=O)NC3CCCC3)cc2n2c(=O)n(Cc3cccc(F)c3)nc12 | i
CCc1cc2c(cc3n2CC(C(=O)NC2CCCCCC2)(c2ccccc2)N(Cc2cccc(F)c2)C3=O)s1 (stereo unspecified) | i
Cc1[nH]c2ccccc2c1C1=C(NCCc2ccc(F)cc2)C(=O)N(C)C1=O | ?
N#Cc1ccccc1CN1CCNc2nc(CNCc3ccccc3)n(Cc3ccccc3)c2C1=O | i
CC(C)Cc1cc(CN2CCC(CO)(CN3CCCC3)CC2)[nH]n1 | i
CCn1cc(CN(C)C(=O)CN2C(=O)C(Oc3ccc(F)cc3)C23CCCCC3)c(C)n1 (stereo unspecified) | i
COc1ccc(O[C@H]2COCCN(C(=O)C3CCCC3)C2)cc1 | i
CCCN1CCC=C(c2cc(-c3ccc(C)cc3)no2)C1 | i
CCCn1c(=O)c2ccc(C(=O)NC(C)C)cc2n2c(=O)n(CC(=O)NC(C)CC)nc12 (stereo unspecified) | i
Cn1c(=O)n(C)c2cc(CNc3ccc(N4CCOCC4)c(C(=O)O)c3)ccc21 | i
Clc1ccc(-c2cnc3ccccc3n2)cc1 | i
CCN(CC)c1nc2c(-c3cccc(F)c3)nnn2c2ccc(Cl)cc12 | i
O=C(Nc1ccc(S(=O)(=O)Nc2nccs2)cc1)C(c1ccccc1)c1ccccc1 | ?
O=C(Nc1ccn[nH]1)c1c(F)cccc1F | i
Clc1cccc(COc2cncc(N3CCNCC3)n2)c1 | i
CN(Cc1ccc(F)cc1)S(=O)(=O)c1cccs1 | i
CC(C)(O)C1CCC2(C)CCCC(C)(O)C2C1 (stereo unspecified) | i
CC1CC(C)CN(S(=O)(=O)c2ccc3c(c2)oc(=O)n3CC(=O)Nc2cccc(F)c2)C1 (stereo unspecified) | i
CCN1CCC(N2CC[C@H](CO)[C@H](N(C)C)C2)CC1 | i
CCCn1c(=O)c2ccc(C(=O)NC3CCCC3)cc2n2c(SCC(=O)NC(C)C)nnc12 | i
COc1cccc(CN2CCOC[C@H](O)C2)c1 | i
COCC1CCN(CC2(O)CCCN(Cc3cccc(F)c3F)C2=O)CC1 (stereo unspecified) | i
O=c1ccn([C@@H]2O[C@H](CO)[C@@H](O)[C@H]2O)c(=O)[nH]1 | i
CC1=C(C(=O)O)/C(=C\CO[C@@H]2O[C@H](CO)[C@@H](O)[C@H](O)[C@H]2O)C(OC(=O)/C=C/c2ccc(O)cc2)C1 (stereo partly specified) | i
COc1cccc(-c2cc(NCc3ccc4c(c3)OCO4)nc(N)n2)c1 | +
CC(C)CC1NC(=O)C2CC3(O)c4ccccc4NC3N2C1=O (stereo unspecified) | i
CC/C=C\CC1C(CC(=O)O)CCC1OC1OC(CO)C(O)C(O)C1O (stereo unspecified) | i
COc1ccc(N2CCN(C(=O)c3cc4c(s3)CN(C3CCCC3)C4)CC2)cc1 | i
O=C1CO[C@H]2CCN(Cc3ccc4c(c3)CCO4)CC[C@@H]2N1Cc1ccccc1 | ?
COc1ccc(N2C(=O)c3ccc(-c4ccco4)n3CC2(C)C(=O)NCc2ccc(Cl)cc2)cc1 (stereo unspecified) | i
Cc1noc(-c2cccn3c(CNC(=O)c4ccccc4C)nnc23)n1 | i
O=C(CCn1ccc2cc(S(=O)(=O)N3CCCC3)ccc21)NC1CCCCC1 | i
O=C(COc1ccc(F)cc1)N1CCCN(c2cc(-c3ccc(Br)cc3)[nH]n2)CC1 | i
CCC(=O)N1CCC(OC2CCN(C(=O)CC3CCCCC3)CC2)CC1 | i
COC(=O)c1ncn2c1C(=O)N(CCC1=CCCCC1)C(C)(C(=O)NC1CCCCCC1)C2 (stereo unspecified) | i
COc1cccc(NS(=O)(=O)c2cc3[nH]c(=O)[nH]c3cc2Cl)c1 | i
C[C@H](c1ccccc1)N1C(=O)[C@@H]2CN(C(=O)CC(C)(C)C)CCN2C1=O | i
CCOC(=O)C[C@@H]1C[C@@H](C(C)C)[C@H](CNS(=O)(=O)c2ccccc2)C=C1C | i
O=C(CSc1nnc2n(CCc3ccccc3)c(=O)c3ccccc3n12)Nc1ccc2c(c1)OCO2 | i
O=C(NCc1ccccc1)c1cnc2n1CCN(Cc1c[nH]c3ccccc13)CC2 | i
CCn1c(=O)c2ccnn2c2ccc(C(=O)NCc3ccc(N4CCOCC4)cc3)cc21 | i
CCOc1ccc(CN2C(=O)c3nc4ccccc4n3CC2(C)C(=O)NC2CCCCC2)cc1 (stereo unspecified) | i
CC(C)c1cc2n(n1)CC(C)(C(=O)NC1CCCCCC1)N(Cc1ccc(Cl)cc1)C2=O (stereo unspecified) | i

(cont.)
SMILES | Methyltransferases
CO[C@@H]1[C@@H](O[C@H]2O[C@@H](C)[C@H](O[C@@H]3C[C@](C)(O)[C@H](O)[C@@H](C)O3)[C@@H](N(C)C)[C@@H]2O)[C@@H](CC=O)C[C@@H](C)[C@@H](O[C@H]2CC[C@H](N(C)C)[C@H](C)O2)/C=C/C=C/C[C@@H](C)OC(=O)C[C@H]1O | i
C=C1C(=O)O[C@@H]2[C@H]1CC(=O)[C@H](C)[C@@](O)(C(=O)/C=C/C)[C@H]2OC(=O)C(C)CC (stereo partly specified) | i
CCOC(=O)C(Cc1c[nH]c2ccccc12)NC(=O)c1ccc(Br)cc1 (stereo unspecified) | i
CCCCN1C(=O)c2cc(C(=O)NCCc3ccc(OCC)cc3)nn2CC1(C)C(=O)NC1CCCC1 (stereo unspecified) | i
Cc1nn2c(c1-c1ccccc1OCc1ccccc1)N(Cc1nccn1C)CCC2 | i
O=C(Cn1nc2c(cc1=O)CCCCC2)Nc1nnc(C2CCCO2)s1 (stereo unspecified) | i
O=C(Cc1cccc(Cl)c1)N1CC(c2nc(Cc3ccccc3)no2)C1 | i
COCCN1Cc2[nH]nc(-c3ccsc3)c2CC1=O | i
COc1ccc(-c2cc(N3CCC(NC(=O)c4ccncc4)C3)n[nH]2)cc1 (stereo unspecified) | i
COc1cc(/C=C/C(=O)O)ccc1O[C@@H]1O[C@H](CO)[C@@H](O)[C@H](O)[C@H]1O[C@@H]1OC[C@](O)(CO)[C@H]1O | i
CCCNC(=O)C1COC2(CCN(C(=O)Cc3ccccc3)CC2)N1C(=O)c1cccc(C)c1 (stereo unspecified) | i
CC1(C(=O)NC2CCCC2)Cn2c(cc3ccccc32)C(=O)N1Cc1ccccc1 (stereo unspecified) | i
C=C1CC[C@H]2[C@@](C)(CCC(O)[C@@]2(C)CO)[C@@H]1CCC1=CCOC1=O (stereo partly specified) | i
COc1ccc(C(=O)NC[C@@H]2CC[C@H]3C[C@@H]2C3(C)C)cc1 | i
COc1ccc(-c2c(C)nn3c(NCCN4CCOCC4)cc(C)nc23)cc1OC | i
CCCn1c(=O)c2ccc(C(=O)NCC(C)C)cc2n2c(=O)n(CC(=O)Nc3ccc(F)cc3)nc12 | i
C#CCN(Cc1cc2c(=O)n(C)c(CN3CCN(C)CC3)nc2cc1Cl)c1ccc(C(=O)NCc2cccnc2)cc1 | ?
